NPYLR7 agonist – agonists of mosquito NPYLR7 receptor, primary screen, cell-based, Aedes aegypti, calcium fluorescence, mosquito biting behavior | Aedes aegypti neuropeptide Y-like receptor 7 (NPYLR7) | HEK293T NPYLR7/Galpha15, GCaMP6s calcium fluorescence | activation, % at 10 µM | 0.15% of 270,000 active | AID 1259423, 2018; in the data active = activation above about 40%;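 note: 0% = vehicle and 100% = reference agonist at the receptor; some compounds past the cut are filed as inactive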
NPYLR7 agonist max-min – further read-out of NPYLR7 agonist, marked with its call; activation, %; measured here: Max-Min RFU normalised activation; some inactives read as strong as hits;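 span of the calcium signal over five minutes; 0% = vehicle and 100% = native peptide agonist; compound fluorescence can raise it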
Active calls of the source: *; & = joins results of further samples. This is a subset (hit frequency here may not be typical).

SMILES | NPYLR7 agonist | NPYLR7 agonist max-min
CCC(C)C1NC2(CCN(C(=O)CC(C)C)CC2)N(Cc2cccc(C(F)(F)F)c2)C1=O (stereo not given) | 5 | 3
CCn1cc(C(CC(=O)NCc2ccco2)c2cccc(Cl)c2)c2ccccc21 (stereo not given) | 1 | 7
N#Cc1ccc(C(F)(F)F)nc1NC1CCCCCC1CO (stereo not given) | 4 | 2
CCN(CC)c1onc(-c2ccc(F)cc2)c1CN(CCCOC)C(=O)c1ccc(F)cc1 | 6 | 7
C=CCC(CC=C)(NC(=O)c1ccccc1)c1ccccc1 | -20 | -25
CCOc1ccc2ccccc2c1C(=O)NCc1nnnn1-c1ccc(OC)cc1 | 19 | 12
COc1cccc(CSc2nnc(CNC(=O)c3cccc(Cl)c3)n2-c2cc(Cl)ccc2C)c1 | 11 | 16
COc1ccc2[nH]cc(C3CCN(C(=O)c4scc(S(=O)(=O)C(C)C)c4Cl)CC3)c2c1 | -9 | 6
COc1cccc(Oc2ccc(-n3cnnc3)cn2)c1 | 8 | -5
Cc1cccn2c(=O)c(C=Nc3ccc4c(c3)OCO4)c(N3CCCC3)nc12 | -3 | -4
CN(C)CCCNc1nc2cc(-c3cnn(C)c3)sc2c(=O)n1C | 8 | 4
Cc1cccc(C(=O)NCc2nnc3n2CCC3)c1C | -1 | -1
Cc1ccc(C(O)c2ncc(-c3ccccc3Cl)[nH]2)cc1F (stereo not given) | 4 | 5
CCc1nc2ccc(C(=O)N3CCN(C)CC3)cn2c1N(C)Cc1nccn1C | 3 | -1
COc1ccc(Br)c2[nH]c(C(=O)N(C)C)cc12 | -2&1 | -2&0
CCOC(=O)c1c(NC(=O)COCCOC)c(-c2ccc(OC)cc2)cn1Cc1ccccc1 | 15 | 24
CC(C)O[C@H]1CN(c2cc(N3CCOCC3)nc(N)n2)C[C@@H]1O | 3 | 1
O=C(O)/C=C/c1ccc(-n2cc(Br)cn2)c(F)c1 | -2 | -5
CN(C)c1ccc(C(=O)N2CCCC(CCC(=O)NCc3ccccc3F)C2)cc1 (stereo not given) | 3 | 6
Cc1cc(/C=C/C(=O)N2CCN(CC(=O)Nc3cccc(F)c3)CC2)c(C)n1C1CC1 | 2 | 0
COc1cccc(-c2cn3nc(-c4cccc(S(=O)(=O)N5CCCCC5)c4)n4c3c2CCCC4)c1 | -7 | -11
NC(=NOC(=O)c1ccccc1CCc1ccccc1)c1ccccc1 | 0 | 3
CCCCNC(=O)C1(C)CCN1CCc1ccccc1 (stereo not given) | 7 | 2
Fc1ccc(Nc2c3c(nc4nncn24)CCC3)cc1 | 3 | 0
COc1ccc(C(=O)N(CC(=O)Nc2nc(CC(=O)N3CC(C)OC(C)C3)cs2)CC(C)C)cc1 (stereo not given) | 20 | 25
COc1ccc(/C=C2\SC(=S)N(Cc3ccco3)C2=O)cc1OC | -1 | -7
Cn1c(C(C#N)C(=O)c2n[nH]c(=O)c3ccccc23)nc2ccccc21 (stereo not given) | 4 | 2
c1ccc(-c2nc3cc4ccccc4cc3[nH]2)nc1 | 3 | 1
COc1ccc(CCC(=O)N2CCN(C(=O)c3cn(C)cc4c(=O)n(-c5ccccc5)nc3-4)CC2)cc1 | 0 | 0
c1ccc(Cn2cc(CN3CCCO3)c(-c3cc4ccccc4o3)n2)cc1 | 7 | -4
CCOc1ccc(C2(C)N(O)C(CC)C(c3ccccc3)=[N+]2[O-])cc1 (stereo not given) | -11 | -19
COC(=O)c1ccc(C2SC[C@H]3C(=O)N(C)C(=S)N23)cc1 (stereo not given in full) | -5 | -9
COc1ccc(-c2nc(N(CCCN3CCOCC3)CCC(=O)NCc3cccc(C(F)(F)F)c3)c3ccccc3n2)cc1 | -11 | -4
Nc1cc(C(=O)N2CCCCC2)cc(Cl)n1 | 10 | 5
O=C(c1ccc(-c2ccccc2F)o1)N1CCC(O)CC1 | 0 | 1
COc1ccccc1CNc1nc(-c2cccnc2)nn1C(=O)C1CC1 | -11 | -17
CCOC(=O)Cc1csc(NC(=O)c2cccs2)n1 | -1 | -5
O=C(Cc1[nH]nc2ccccc12)N1CCC(CN2CCOCC2)C1 (stereo not given) | 4&7 | 1&5
Clc1ccc2c(NCCN3CCCC3)nc(-c3ccco3)nc2c1 | 26 | 20
CCOC(=NCC1CC1)NC(=O)c1ccc(C)cc1 | 6 | 10
CC(=O)Nc1sc2c(c1-c1nc3ccccc3s1)CCN(C(C)=O)C2 | 3 | 1
COCc1nc(N[C@@H](C)c2ncccc2C)c2cnn(C)c2n1 | 19 | 13
Cc1cccc2[nH]c(CCn3cnc(-c4ccccc4)c3-c3cnc[nH]3)nc12 | -6 | -7
COc1ccc(CC(=O)N(Cc2cccc(Cl)c2)Cc2nc3cc(Cl)ccc3o2)cc1OC | -4 | 8
CC(=O)c1nnc2c(-c3ccccc3)c(C)nn2c1C | -2 | -3
CNC(=O)NC(=O)CNc1ccccc1Cc1ccccc1 | 11 | 6
Brc1ccc(C2Nc3ccc(Br)cc3C(c3ccccc3)O2)cc1 (stereo not given) | 8 | 15
COc1ccc(S(=O)(=O)Nc2ccccn2)cc1C | -1 | -1
Cn1c(=O)c2c(=O)cc(Cl)[nH]c2n(C)c1=O | 13 | 10
CSc1ncccc1C(=O)N1CCN(S(=O)(=O)/C=C/c2ccccc2)CC1 | -1 | -4
CCN(C(C)=O)C1CCN(c2nccc(CCC(F)(F)F)n2)C1 (stereo not given) | 25 | 23
CCC(C(=O)NC1CCN(c2ccccc2C(=O)N2CCN(C3CCCCCC3)CC2)CC1)c1ccccc1 (stereo not given) | 18 | 32
CC(NS(=O)(=O)c1c(N)n(C)c(=O)n(C)c1=O)c1ccccc1 (stereo not given) | 1 | -1
COc1ccccc1N1CCN(C(=O)CC23CC4CC(CC(C4)C2)C3)CC1 | 11 | 14
Cc1cc(CN(C)Cc2cc3cc4c(cc3[nH]c2=O)CCC4)no1 | -3 | 1
CC(C)Cc1cc(NS(=O)(=O)/C=C/c2ccccc2Br)n[nH]1 | 2 | 0
NC(=O)c1ccnc(N2CCC(N3CCCC(C(=O)N4CCOCC4)C3)CC2)c1 (stereo not given) | 25 | 19
CC(C)(C)n1ncc2c(=O)n(NC(=O)Cc3ccc(-c4ccccc4)cc3)cnc21 | -1 | -6
O=C(CCSc1nc(-c2ccc(Br)cc2)cs1)N1CCCC1 | -7 | -7
Cc1noc(C)c1S(=O)(=O)N1CCC2(CC1)Nc1ccccc1C(=O)N2CCO | 0 | 1

Rewritten with two lines to a compound: entries from further up.
Order of results – NPYLR7 agonist, NPYLR7 agonist max-min
- COc1ccc(S(=O)(=O)Nc2ccccn2)cc1C
  -1, -1
- Cn1c(=O)c2c(=O)cc(Cl)[nH]c2n(C)c1=O
  13, 10
- CSc1ncccc1C(=O)N1CCN(S(=O)(=O)/C=C/c2ccccc2)CC1
  -1, -4
- CCN(C(C)=O)C1CCN(c2nccc(CCC(F)(F)F)n2)C1 (stereo not given)
  25, 23

Molecules from the list above containing a CF3 group, in the order listed:
SMILES | NPYLR7 agonist | NPYLR7 agonist max-min
CCC(C)C1NC2(CCN(C(=O)CC(C)C)CC2)N(Cc2cccc(C(F)(F)F)c2)C1=O (stereo not given) | 5 | 3
N#Cc1ccc(C(F)(F)F)nc1NC1CCCCCC1CO (stereo not given) | 4 | 2
COc1ccc(-c2nc(N(CCCN3CCOCC3)CCC(=O)NCc3cccc(C(F)(F)F)c3)c3ccccc3n2)cc1 | -11 | -4
CCN(C(C)=O)C1CCN(c2nccc(CCC(F)(F)F)n2)C1 (stereo not given) | 25 | 23

Remaining list, next part.
SMILES | NPYLR7 agonist | NPYLR7 agonist max-min
C=CCN1C[C@@H]2C[C@@H](C(=O)NC)N(C(=O)c3ccc4c(c3)OCCCO4)c3cccc(c32)C1=O | 1 | 12
O=C(c1ccccc1F)N(Cc1csc(COc2ccc(Cl)cc2)n1)C1CC1 | 19 | 17
CCOC(=O)c1ccc(NC(=O)N(CCCOC)CC(=O)N(CCc2ccc(OC)c(OC)c2)Cc2sccc2C)cc1 | -1 | 13
CC(=O)N(C)c1ccc(NC(=O)CNCCc2cccs2)cc1 | 10 | -4
CCCCN(CCCC)C(=O)c1[nH]c(C)c(C(C)=O)c1C | 9 | 3
COc1ccc(Cl)cc1Cn1c(C)c(C(=O)NCCC#N)sc1=O | 9 | 2
CCCn1cc(C(=O)NC2CCCN(c3ccc(C(F)(F)F)cn3)C2)c(C)n1 (stereo not given) | 5 | 3
CC(C)(C)c1ccc(-n2c(=O)[nH]c3c(C(N)=O)nc(-c4ccccc4[N+](=O)[O-])nc32)cc1 | -6 | -10
COCCNC(=O)CSc1nc(NC(C)=O)c(NC(=O)c2ccccc2)c(=O)[nH]1 | 0 | -1
Cc1ccc2nc(C)c(C(=O)NC3C=CS(=O)(=O)C3)cc2c1 (stereo not given) | 0 | 0
CN(C)CCCN1C(=O)C(=O)C(=C(O)c2ccc(Br)cc2)C1c1ccccc1 (stereo not given) | -3 | -3
CCC(C)NCc1cccn1Cc1cccc(Cl)c1 (stereo not given) | -12 | -18
O=C(OCc1ccc(Cl)cc1)c1ccc(S(=O)(=O)N2CCCC2)o1 | 3 | -2
Cc1ccccc1C(=O)Nc1ccc(C2SCC(=O)N2c2cccc(C)c2C)cc1 (stereo not given) | -19 | -14
O=C(NC1CCN(C(=O)c2ccc(F)c(C(F)(F)F)c2)CC1)C1CC1 | 4 | 2
O=C(Nc1ccc(S(=O)(=O)C2CCCC2)cc1)C(=O)N1CCCCCCC1 | 6 | 3
Cc1nc(C(F)(F)F)ccc1C(=O)N1CCC1(C)C(=O)NS(=O)(=O)c1ccc(Cl)s1 (stereo not given) | 7 | 6
O=C(Nc1ccccc1)c1ccc(CSc2nnc3ccccn23)cc1 | -16 | -24
Cc1nc(Cl)c(Cl)n1CC(=O)Nc1cc(-c2ccccn2)nn1C | 4 | 2
COc1ccc(NC(=O)c2ccccc2NC(=O)CN(C)C2CCN(C)CC2)cc1 | 8 | 6
Cc1ccc(Oc2ncccc2CNC(=O)C(C)N2CCCC2)cn1 (stereo not given) | 24 | 10
Cc1nc(CCNC(=O)c2coc(COc3ccc(F)cc3)n2)sc1C | 2 | -3
COc1ccc(/C=C/C(=O)Nc2nc3ccccc3s2)cc1 | -3 | -1
CCN(CC)c1ccc(C2NC(=O)NC(C)=C2C(=O)OCC(F)(F)F)cc1 (stereo not given) | 10 | 9
Cc1cc(NCC(O)c2ccc(F)cc2F)nc(C)n1 (stereo not given) | 1 | 18
COc1c(C)cnc(CN(C)C(=O)Nc2cc(F)ccc2F)c1C | -2 | -5
Cn1c(O)c(N=NC(=O)COc2ccc(Cl)cc2)c2ccccc21 | -2 | 2
O=C(CSc1nc2c(cnn2CCO)c(=O)[nH]1)N1CCCCCC1 | -1 | -1
CCC(C)OC(=O)C1=C(C)NC2=C(C(=O)CC(c3ccc(OC)cc3)C2)C1c1ccc(Cl)c(Cl)c1 (stereo not given) | 2 | 7
FC(F)(F)CCCN1CCOC(CCCc2ccccc2)C1 (stereo not given) | 13 | 1
COc1ccccc1C(NC(=O)c1ccc(C)[nH]c1=O)c1ccccc1 (stereo not given) | 3 | 15
COc1ccc(C(=O)NCc2nnc(SCc3ccc(F)cc3)n2-c2ccc(C)cc2)c(OC)c1 | 28 | 23
O=C(CCC1NC(=O)c2ccccc2NC1=O)NCCc1ccccc1 (stereo not given) | 3 | 3
CC(C)c1cc(CN(C)C(=O)c2ccc(C#CC(C)(C)O)o2)on1 | 6 | 4
Clc1ccc(C2NCCS2)c(Cl)c1 (stereo not given) | -5 | -2
CC(=O)Nc1nc2ccc(NC(=O)c3ccc(N)cc3)cc2s1 | -1 | -6
O=C(N=C1N=C2C=CC(I)=CN2Cc2ccccc21)c1ccncc1 | 1 | 39
COCCNC(=O)Cn1nc2c(c1NC(=O)c1cc(Cl)ccc1OC)CSC2 | -4 | 3
O=C(NCCc1nc(-c2cccnc2)n[nH]1)c1cccc2c1OCC2 | 19 | 13
O=C(CCc1cccs1)Nc1ccnn1C1CCCCC1 | 0 | -1
CC1=C(c2ccc(F)cc2)[N+](=O)C(C)(C)N1[O-] | 3 | 1
CCC(C)N(Cc1ccc(C(=O)OC)o1)Cc1cccs1 (stereo not given) | -2 | 5
CN(C)c1c(F)cc(NC(=O)C2CCOC2)cc1F (stereo not given) | 0 | 0
CC(C)C(=O)N1CCC(NC(=O)c2cccc3cccnc23)CC1 | 6&1 | 3&-2
Cc1cc(C)c(S(=O)(=O)N2CCN(C(=O)NCCc3cccs3)CC2)c(C)c1 | -1 | 25
O=C(CSc1ncnc2sc3c(c12)CCCC3)NC1CC1 | -5 | -4
COc1ccc(CN2CCNC(=O)C2CC(=O)N(C)Cc2cnn(C)c2)c(C)c1C (stereo not given) | 24&-5 | 13&-7
Cc1cc2oc3c(c(=O)c2cc1Cl)C(c1ccc(Cl)cc1)N(c1nccs1)C3=O (stereo not given) | 7 | 2
COc1cccc(N2CCNC(C)C2=O)c1 (stereo not given) | -3 | 0
Cc1cccnc1C(NC(=O)C1CCN(Cc2ccccc2)CC1)c1ccc(F)cc1 (stereo not given) | 5 | 8
CCOc1ccc(-n2nnnc2CN2CCN(C(=O)c3c[nH]c4ccccc34)CC2)cc1 | 1 | 0
COCc1nn2c(nnc3c(=O)n(CCC4=CCCCC4)ccc32)c1-c1ccc(F)cc1 | 4 | 3
Cn1c(SC2CCCC2)c(C#N)c(=O)n(C)c1=O | 5 | -1
COCC(=O)Nc1c(-c2cc(C)cc(C)c2)nc2cc(C)ccn12 | -4 | -4
Cc1ccc(-c2c(-c3ccccc3)ncn2C2CCN(S(C)(=O)=O)CC2)o1 | 32 | 14
O=C(NCc1cc(=O)[nH]cn1)c1cccc2ccnn12 | 8 | 6
Cc1cc(C(=O)N2CCOC(COc3cccc(C(F)(F)F)c3)C2)co1 (stereo not given) | 1 | 11
O=C1CCCCCN1Cc1nn(CN2CCCC(C(F)(F)F)C2)c(=S)n1-c1cccnc1 (stereo not given) | 0 | 8

Bioassay records deposited in PubChem BioAssay by Fisher Drug Discovery Resource Center.
